# Assay outcomes as filed in PubChem.
# Cruzain Triton: blocks cruzain activity in presence of Triton detergent; hit rate 0.43% among 200,000; P25779; AID 1478; purified cruzain, Z-FR-AMC fluorescence, 0.01% Triton; Potency, µM, for inactives: max response, negative = inhibition, actives largely listed as inhibitors; active = well fitted curve in the direction sought with a large enough effect; inconclusive = small, poorly fitted or top-dose-only effect, or another doubt; inactive = no such curve, though single readings can be large; an effect the other way counts as inactive or inconclusive;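 note: plate controls were neutral wells for no effect and buffer without enzyme for full effect; nearly all actives have a fitted effect of over 40% in size; top concentration of the series not given in the record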
# Target sequence (P25779 123-467 limits assumed): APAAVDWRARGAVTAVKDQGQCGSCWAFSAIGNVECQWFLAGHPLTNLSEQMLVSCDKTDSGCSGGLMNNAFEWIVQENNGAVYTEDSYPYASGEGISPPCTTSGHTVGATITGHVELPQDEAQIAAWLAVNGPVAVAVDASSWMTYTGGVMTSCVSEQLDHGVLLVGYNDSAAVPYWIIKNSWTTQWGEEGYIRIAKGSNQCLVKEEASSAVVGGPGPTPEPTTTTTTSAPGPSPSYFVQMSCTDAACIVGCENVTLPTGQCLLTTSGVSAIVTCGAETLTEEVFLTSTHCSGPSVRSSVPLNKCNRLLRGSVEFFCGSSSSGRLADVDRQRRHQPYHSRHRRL
#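 Read-out: AMC fluorescence (360 nm excitation, 450 nm emission), four reads over 2 min, first-to-third difference used. Conditions: cruzain 1.5 nM, Z-FR-AMC 2 uM, pH 5.5 acetate, 5 mM DTT, 0.01% Triton X-100.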
# LASV entry inh: Lassa virus entry inhibition; Lassa virus pseudotype entry inhibition, cell reporter; control for the full effect not named in the record; Potency, µM (series often up to 37.9 µM), inactives show at the highest dose activity change, negative = inhibition, actives largely listed as inhibitors; hit rate 1.2% among 300,000; AID 540256; active means well fitted inhibition curve with a large enough effect; inconclusive means small, poorly fitted or top-dose-only effect, or effect the other way; inactive means flat fitted curve, though single readings scatter; tested in HEK293 cells; note: % is set by controls: 0 for no effect and ±100 for the full control effect; nearly all actives have a fitted effect of over 50% in size; luciferase read-out
# StopGo reporter: FMDV 2A StopGo reporter, luciferase signal; Potency, µM (titrated, usually from 57.9 µM), without a hit: at the top dose signal change, negative = less light; human cells with a luciferase reporter of 2A StopGo recoding; control for the full effect not named in the record; hit rate 1.2% among 410,000; active = well fitted falling curve with a large enough effect; inconclusive = small, poorly fitted or top-dose-only effect; inactive = no such curve, though single readings can be large or run the other way; tested in HEK293T cells; note: % is set by controls: 0 for no effect and ±100 for the full control effect; nearly all actives have a fitted effect of over 45% in size; luciferase light after 4 h
# SARS PLP yeast: inhibitors of SARS-CoV papain-like protease in yeast. hit rate 0.19% among 330,000. Potency, µM (highest dose often 32.9 µM), without a hit: at the top dose activity, positive = growth rescue. S. cerevisiae expressing SARS-CoV PLpro, growth rescue; control for the full effect not named in the record. AID 485353; note: 0% is about no effect; nearly all actives have a fitted effect of over 55% in size; growth read by luminescence after 48 h
# RE007 growth inh: less growth of the S. pombe RE007 Vpr strain | S. pombe RE007 Vpr strain, BacTiter-Glo ATP luminescence, 24 h; control for the full effect not named in the record | Potency, µM (top dose mostly 92.2 µM), without a hit: at the top dose activity change, negative = less growth | hit rate 0.21% among 360,000 | AID 651644; active = well fitted falling curve with a large enough effect; inconclusive = small, poorly fitted or top-dose-only effect; inactive = no such curve, though single readings can be large or run the other way;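 note: % is set by controls: 0 for no effect and ±100 for the full control effect; nearly all actives have a fitted effect of over 50% in size; the assay follows cell death caused by Vpr and the record does not say whether a fall means rescue or toxicity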
#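 Fission yeast RE007 carrying one integrated HIV-1 vpr copy, seeded at OD 0.01 in PMG+AL medium with 23 nL pinned compound. Grown 24 h at 30 degrees; viability read by BacTiter-Glo luminescence after 5 min.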
# MARV entry inh: inhibitors of Marburg virus binding or cell entry; Marburg virus pseudotyped entry inhibition, cell reporter; control for the full effect not named in the record; about a third of the inactives were read at about 46 µM; Potency, µM (top dose mostly 37.8 µM), for the others: at the highest dose activity change, negative = inhibition, usual class: inhibitors; hit rate 1.8% among 300,000; AID 540276; active = well fitted inhibition curve with a large enough effect; inconclusive = small, poorly fitted or top-dose-only effect, or effect the other way; inactive = flat fitted curve, though single readings scatter; tested in HEK293 cells; about a fifth of its hits are not listed in these tables; note: % is set by controls: 0 for no effect and ±100 for the full control effect; luciferase read-out
# Cruzain inh noDet: blocks cruzain activity in detergent-free assay. purified cruzain, Z-FR-AMC fluorescence, no detergent. AID 1476. Potency, µM, without a hit: max response, negative = inhibition, usual class: inhibitors. hit rate 2.3% among 200,000. P25779; active = well fitted curve in the direction sought with a large enough effect; inconclusive = small, poorly fitted or top-dose-only effect, or another doubt; inactive = no such curve, though single readings can be large; an effect the other way counts as inactive or inconclusive;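 note: plate controls were enzyme without inhibitor for no effect and buffer without enzyme for full effect; nearly all actives have a fitted effect of over 40% in size; top concentration of the series not given in the record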
#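 Detergent-free condition (0.00005% Triton X-100) in acetate buffer pH 5.5 with DTT. 1.5 nM enzyme and compound were pre-mixed 15 min, then 2 uM Z-FR-AMC substrate added; reaction progress from fluorescence change between first and third reads (60 s).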
# NS1 inh: influenza NS1 inhibition | S. cerevisiae slowed by influenza A NS1, growth recovery by OD600 | Potency, µM (doses to about 46.1 µM), for the others: top-dose activity, positive = more growth | hit rate 0.4% among 270,000; note: actives are rising curves; nearly all actives have a fitted effect of over 50% in size
#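 Compounds were scored for reversing the slow growth caused by influenza A NS1 in S. cerevisiae, measured by optical density at 600 nm. Assay medium contained 2% galactose at pH 6.0; NS1-free yeast of the same strain were the positive control.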
# An asterisk follows results filed as active; u = inconclusive; x = no result given; [ ] = remark or other dose. Unless noted, calls come from the whole dose curve; as a rule, active means well fitted rising curve with a large enough effect; inconclusive means small, poorly fitted or top-dose-only effect; inactive means no such curve, though single readings can be large or run the other way. Potency is the fitted concentration of half-maximal effect.
SMILES,Cruzain Triton,LASV entry inh,StopGo reporter,SARS PLP yeast,RE007 growth inh,MARV entry inh,Cruzain inh noDet,NS1 inh
C=CC(COCc1ccccc1)N(C(=O)OC(C)(C)C)S(=O)(=O)c1ccccc1Br (configuration not stated),x,x,u,0.8%,-8.5%,x,x,1.3%
Cc1ccc2c(c1)N(CCC(=O)NCc1cccs1)C(=O)C(C)O2 (configuration not stated),2.9%,-13.6%,-13.5%,0.1%,-11.1%,-9.6%,10.2%,-3.3%
COc1ccc2nc(NC(=O)c3ccoc3C)sc2c1,-2.8%,-28.3%[14.3 µM],-1.3%,-12.5%,u,u,-12.9%,-7.9%
Cc1ccccc1C(=O)NC(=S)NCCc1ccccc1,-6.0%,-16.2%,0.5%,25.8%,-23.6%,8.7%,17.9%,-22.9%
CC(=O)Nc1ccc(S(=O)(=O)Nc2ccccc2C(=O)N2CCCCC2)cc1,x,11.8%[46.1 µM],16.4%,10.6%,-12.1%,-12.0%[46.1 µM],x,28.1%
COc1ccc2nc(NCc3cccnc3)sc2c1,x,x,64.4%[activator],1.3%,-22.0%,x,x,0.7%
CCC(=O)Nc1ccc2c(c1)nc(CCN1CCN(c3ccccc3)CC1)n2C,x,x,-12.7%,1.1%,-4.9%,x,x,-0.3%
Oc1ccc2ccccc2c1CN1CCN(c2ccccc2F)CC1,-10.9%,2.0%,-3.4%,1.9%,2.8%,23.5%,-21.4%,-16.5%
O=C1COc2ccc(C(=O)COC(=O)c3ccc(S(=O)(=O)C(F)F)cc3)cc2N1,x,-0.5%,-29.2%,0.8%,12.4%,3.2%[46.1 µM],x,x
O=C(NCC1CCCO1)c1ccc2c(c1)C(=O)N(C1CCCCC1)C2=O (configuration not stated),0.4%,4.5%,-8.1%,-8.9%,-10.1%,18.0%,8.6%,-14.3%
CCc1ccc(/C=C2/SC(=S)N(CCC(=O)NCCCN3CCOCC3)C2=O)cc1,x,15.0%[46.1 µM],7.2%,0.9%,-10.5%,-24.3%[46.1 µM],x,20.1%
CC1(C)Oc2ccc(/C=C/C(=O)N3CCOCC3)c(O)c2C(N2CCOCC2)C1O (configuration not stated),-8.0%,12.3%,x,13.9%,x,17.5%,2.3%,13.5%
O=c1cc2c(nn1Cc1ccc(Cl)cc1)-c1ccccc1CC2,-14.6%,14.2%,17.4%,-21.5%,-1.6%,4.7%,-6.3%,-63.7%
O=C(CCNS(=O)(=O)c1cccs1)NCc1ccccc1,-1.0%,11.5%,-14.5%,6.6%,-6.2%,-8.6%,3.6%,3.8%
O=C(CN(C(=O)CNC(=O)c1cccs1)c1ccc(F)cc1)NC1CCCC1,x,20.7%,10.8%,1.6%,-14.2%,10.1%[46.1 µM],x,6.8%
COCCNc1nc(=S)[nH]c2cc(OC)c(OC)cc12,-4.5%,5.6%,12.1%,0.2%,-6.3%,-0.9%[46.1 µM],-2.0%,-0.1%
CC(Sc1nnc2ccccn12)C(=O)Nc1ccc(N2CCOCC2)cc1 (configuration not stated),x,1.5%[46.1 µM],-3.9%,-7.8%,1.3%,-0.3%[46.1 µM],x,x
CN(C)c1ccc(N/C=C/C(=O)C(C)(C)C)cc1,-2.6%,u,40.4%[activator],-15.4%,0.3%,17.2%,-0.5%,-0.9%
COc1ccc2[nH]c(=O)c(CN(C(C)=O)c3ccc(C)c(C)c3)cc2c1,x,u,-24.3%,9.0%,-8.3%,u,x,12.5%
N#C/C(=C\c1cc(Br)c(O)c(Br)c1)c1nc2ccccc2c(=O)[nH]1,-2.5%,1.4%[46.1 µM],-16.7%,x,x,x,2.7%,x
CCCCN(CC)C(=O)CSc1nc2n[nH]c(C)c2c(=N)n1-c1ccc(CC)cc1,-12.6%,-16.8%[46.1 µM],u,x,x,x,u,x
O=C(c1cnn2c(C(F)(F)F)cc(-c3ccco3)nc12)N1CCCc2ccccc21,0.1%,0.7%,-8.1%,-9.5%,3.9%,u,-2.3%,2.7%
Cc1ccc2cc(C#N)c(SCc3nnc(-c4ccccc4[N+](=O)[O-])o3)nc2c1,-10.2%,3.1%,-14.7%,26.7%,0.4%,u,u,10.0%
CCc1ccc2ncc(S(=O)(=O)c3ccc(C)c(C)c3)c(N3CCCC3)c2c1,-9.4%,u,u,-20.7%,-12.3%,u,-3.1%,-32.7%
CC(C)(C)c1ccc(OCCOc2ccc(C(C)(C)C)cc2NC=O)c(NC=O)c1,x,x,u,-1.4%,-9.6%,x,x,20.3%
COc1ccccc1OCCCC(=O)Nc1ccc([N+](=O)[O-])cc1Br,x,-1.4%,u,-0.6%,-15.2%,u,x,-9.0%
CCCCOC(=O)C1=C(C)Nc2ncnn2C1c1cc(OC)c(OC)cc1OC (configuration not stated),-0.9%,-0.1%,-3.3%,-3.2%,5.1%,20.4%,13.8%,-2.3%
COc1ccccc1N1CCN(c2cc(C)nc3nc(-c4ccc(Cl)cc4)nn23)CC1,-0.3%,-14.9%[46.1 µM],-14.4%,x,x,29.9%[46.1 µM],-4.6%,x
O=C1CC(N2CCN(c3ccccc3Cl)CC2)C(=O)N1c1ccccc1 (configuration not stated),0.5%,u,-12.7%,-20.7%,u,2.3%,10.4%,-14.7%
c1ccc(-n2nc3ccccc3n2)cc1,-2.9%,4.1%,59.2%[activator],-13.7%,-5.9%,-0.8%,-1.4%,-1.1%
Cc1cccc(N(CC(=O)NC2CC3CCC2C3)S(=O)(=O)c2ccccc2)c1 (configuration not stated),x,x,-4.0%,-11.1%,6.8%,x,x,-40.1%
O=C(NCc1ccon1)C1CCC(=O)N(CCc2cccc(F)c2)C1 (configuration not stated),x,23.2%,-7.0%,1.3%,-0.5%,-0.7%,x,3.9%
CN(C)CCNc1c(N)c(=O)oc2ccccc12,x,0.8%,-4.0%,-1.9%,-1.4%,u,x,5.8%
Cc1ccc(S(=O)(=O)N(C)C)cc1NC(=O)COC(=O)COc1ccc2c(c1)CCC2,x,2.6%,-20.0%,-4.1%,u,1.6%,x,x
Cc1ccc(S(=O)(=O)CC(=O)c2ccccc2[N+](=O)[O-])cc1,x,x,18.9%,-6.4%,0.7%,x,x,10.7%
Cc1nc2ccccc2n1-c1nc(-c2ccco2)cc(C(F)(F)F)n1,-1.2%,u,-5.6%,0.5%,3.0%,u,u,17.0%
NS(=O)(=O)c1cccc(NC(=O)CC2(CC(=O)O)CCCC2)c1,x,-1.4%,2.3%,0.0%,2.9%,-6.7%[46.1 µM],x,14.4%
Cc1ccc(S(=O)(=O)N2CCOCC2)cc1NC(=O)COC(=O)Cc1cccs1,x,0.5%,-9.7%,u,-4.5%,-1.1%,x,x
COC(=O)c1nc(-c2ccc(C)cc2)oc1N(C)C,-17.4%,13.3%,x,5.1%,1.8%,11.7%,9.5%,-90.3%
O=C(NCc1ccco1)c1cnn2c(C(F)(F)F)cc(-c3cccs3)nc12,-2.8%,1.1%,0.0%,-4.5%,-11.3%,-5.1%,3.4%,-3.4%
COc1cc([N+](=O)[O-])c(N2CCOCC2)c([N+](=O)[O-])c1OC,x,11.4%,-15.9%,-1.6%,7.3%,u,x,x
CCCn1c(SCC(=O)Nc2cc(Cl)ccc2Cl)n[nH]c1=O,x,u,u,-2.4%,-4.6%,u,x,x
CC1CCc2nn(CC(=O)Nc3ccc(F)cc3F)cc2C1 (configuration not stated),1.9%,x,13.4%,-8.8%,-5.7%,x,-2.4%,-8.3%
Cc1nc(N2N=C(c3ccc(Cl)cc3)CC2c2ccco2)sc1C(=O)N(C)C (configuration not stated),x,u,-0.7%,1.7%,-7.1%,-25.0%[46.1 µM],x,x
CCOc1ccc(CCNC(=O)c2cc3c(=O)n(C)c4ccccc4c3n2C)cc1,-0.6%,u,u,x,x,7.9%[46.1 µM],-9.6%,x
CCOCCCNC(=O)CN1C(=O)COc2ccc(S(=O)(=O)N3CC(C)CC(C)C3)cc21 (configuration not stated),x,-19.0%[46.1 µM],11.3%,-0.1%,9.0%,4.5%[46.1 µM],x,-8.1%
Nc1[nH]n2c(=O)cc(-c3ccccc3)nc2c1N=Nc1ccc(S(N)(=O)=O)cc1,x,-1.8%,-4.7%,-0.3%,-13.8%,4.9%[46.1 µM],x,11.3%
CC1(C)OCC(C2CC(c3ccccc3)NS(=O)(=O)O2)O1 (configuration not stated),x,x,1.0%,-4.5%,12.2%,x,x,8.8%
Cc1c(-c2cc(C(=O)O)c3ccccc3n2)cnn1C,x,1.7%[46.1 µM],-12.2%,0.4%,0.7%,2.0%[46.1 µM],x,x
CCCCN1C(=S)NC[C@@H]1Cc1ccc(O)cc1,x,x,-3.2%,12.8%,-3.3%,x,x,5.2%

# Going on with the list.
SMILES,Cruzain Triton,LASV entry inh,StopGo reporter,SARS PLP yeast,RE007 growth inh,MARV entry inh,Cruzain inh noDet,NS1 inh
CN(C)CCOCCOc1ccc(Cl)cc1Br,x,13.6%[46.1 µM],-4.4%,1.0%,-6.6%,u,x,-3.1%
CCC(Cc1ccccc1)NC(=O)CN1C(=O)COc2ccc(S(=O)(=O)N3CCCCCC3)cc21 (configuration not stated),5.4%,-13.2%[46.1 µM],19.5%,x,x,11.0%[46.1 µM],0.2%,x
CCOc1ccccc1C(=O)N1CCN=C1SC,-0.5%,14.7%,-24.4%,10.5%,1.0%,28.3%[46.1 µM],1.2%,-8.5%
COc1ccccc1C(=O)Nc1ccc2c(c1)nc1n2CCN(C2CCCCC2)C1,x,x,u,-9.6%,-11.8%,x,x,20.6%
CC(C)(C)N(Cc1ccccc1)C(=O)c1cc2ccccc2o1,x,x,-23.8%,0.3%,0.8%,x,x,2.6%
CC(C)n1nc(C(=O)NCCCN2CCCC2=O)c2ccccc2c1=O,x,10.8%,-23.6%,-4.9%,2.7%,11.5%,x,-3.1%
CCn1nnc(-c2ccccc2NS(=O)(=O)c2ccc(C(=O)OC)cc2)n1,-1.7%,u,-20.5%,-6.6%,-4.1%,-29.7%,-0.9%,-6.1%
Cc1c(NC(=O)c2ccccc2N)cccc1C(=O)O,2.9%,1.4%,u,-5.7%,-12.8%,-0.3%,0.8%,7.4%
